RGS16-Gao = RGS16-Galphao interaction regulator (human) | O15492+P09471 | bead-based flow cytometry RGS16-Galphao binding, fluorescence; actives lie on both sides | binding response (% of control), % at 10 µM | 0.38% of 220,000 active;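 active = below 25% or above 175%, edge rows of some plates excepted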;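 also: Galphao activated by GDP with aluminum fluoride before binding; 100% = wells without compound and 0% = beads without RGS; some results beyond the cut were filed as inactive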
INS promoter inh = TRM-6 insulin promoter activity inhibition. TRM-6 cells (human fetal islet line), insulin promoter-eGFP reporter, imaging; reporter expression induced with tamoxifen. inhibition, % at 2 µM. 0.9% of 130,000 active. AID 1273;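 active = inhibition above the mean plus 3 SD, with well images judged a real hit on visual review, cut at about 60% in these data, passing the limit was not always enough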
HSV augment = increases HSV replication in cells; HSV replication augmentation in cells, fold increase; 0.005% of 220,000 active; maximum fold increase; AID 1956;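 active = peak rise of 1.5-fold or more in the series; tested in PC3 cells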;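 also: first round at 10 µM; read as green reporter fluorescence; hits show the peak of a series up to 25 µM; 1 = signal of infected wells without compound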
PKD1 inh = blocks activity of human protein kinase D1. PKD1 kinase fluorescence polarization assay. inhibition, %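 (about 10 µM by stock and volumes)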. 0.056% of 200,000 active;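 active = inhibition of 50% or more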;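 also: controls were vehicle for no effect and a reference inhibitor for full effect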
Target sequence (Q15139 whole entry, looked up): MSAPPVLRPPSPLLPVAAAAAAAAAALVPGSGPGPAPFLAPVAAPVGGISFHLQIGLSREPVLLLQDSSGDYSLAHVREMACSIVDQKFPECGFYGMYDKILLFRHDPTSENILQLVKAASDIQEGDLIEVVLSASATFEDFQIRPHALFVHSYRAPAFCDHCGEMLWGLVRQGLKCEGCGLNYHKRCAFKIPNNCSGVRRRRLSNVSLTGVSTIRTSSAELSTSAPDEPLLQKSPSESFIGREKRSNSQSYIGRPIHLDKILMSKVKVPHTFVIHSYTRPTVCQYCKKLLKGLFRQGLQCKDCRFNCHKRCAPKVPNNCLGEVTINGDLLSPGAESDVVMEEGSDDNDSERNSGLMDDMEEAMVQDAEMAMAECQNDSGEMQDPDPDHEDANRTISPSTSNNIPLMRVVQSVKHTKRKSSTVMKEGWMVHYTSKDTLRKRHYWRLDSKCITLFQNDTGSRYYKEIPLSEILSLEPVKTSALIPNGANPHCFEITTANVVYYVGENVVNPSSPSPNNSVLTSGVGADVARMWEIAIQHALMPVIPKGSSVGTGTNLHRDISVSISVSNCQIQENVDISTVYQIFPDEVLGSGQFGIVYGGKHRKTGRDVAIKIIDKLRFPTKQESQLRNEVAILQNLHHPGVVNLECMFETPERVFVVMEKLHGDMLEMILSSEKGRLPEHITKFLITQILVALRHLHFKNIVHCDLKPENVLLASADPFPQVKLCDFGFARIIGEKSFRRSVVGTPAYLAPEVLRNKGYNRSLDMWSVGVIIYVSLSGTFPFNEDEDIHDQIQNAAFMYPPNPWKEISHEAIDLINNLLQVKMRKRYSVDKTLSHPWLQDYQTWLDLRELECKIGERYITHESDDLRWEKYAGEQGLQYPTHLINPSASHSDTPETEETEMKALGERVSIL
GALR2 agonist = agonists of human galanin receptor 2 (GALR2). O43603. GALR2-expressing cells, agonist activation read-out. activation, %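 (tested at 5 µM)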. 0.48% of 140,000 active. AID 803;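 active = above mean plus 3 SD of all compounds, about 5% in these data, not always enough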;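 also: 0% = vehicle buffer wells and 100% = reference agonist at full effect; tested in CHO reporter cells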
INS promoter inh cell count = recorded beside INS promoter inh, whose call it bears; normalized cell count, %; measured here: cell count, toxicity; reference of the scale not given here;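 cells exposed to compound for 48 h; stained nuclei by imaging scaled within each plate; lower means fewer cells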
HSV augment primary fold = further read-out of HSV augment, marked with its call; fold increase; compound at 10 µM; measured here: primary screen fold increase 10 uM; tested in PC3 cells;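 GFP signal in the first replicate; 1 = infected wells without compound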
Active calls of the source: *; i = inactive; . = no result given. Rows are unselected. Share with any hit: about 1.2%.

Each structure is followed by: RGS16-Gao, INS promoter inh, INS promoter inh cell count, HSV augment, HSV augment primary fold, PKD1 inh, GALR2 agonist
- O=C(Nc1ccccc1C(=O)NCC1CCCO1)c1ccc(Cl)cc1Cl (stereo unspecified)
  94.8, 5.7, 113.8, i, 1.05, 8.5, 0.5
- CC(Oc1ncnc2ccccc12)C(=O)Nc1cccc(S(=O)(=O)N2CCOCC2)c1 (stereo unspecified)
  167.0, 25.9, 123.9, i, 0.99, 1.7, -1.2
- O=C(Nc1ccccc1)N1CCN(Cc2ccc3c(c2)OCO3)CC1
  102.5, ., ., i, 0.94, -12.6, -1.9
- COc1cc2c(cc1OC)C(COc1ccc(F)cc1)N(C(=O)c1ccco1)CC2 (stereo unspecified)
  86.0, 36.4, 87.2, i, 0.92, -0.7, 1.3
- COc1ccc(OC)c(-n2c(=S)[nH]c3c(sc(=S)n3-c3ccccc3)c2=O)c1
  100.3, 46.7, 98.3, i, 0.88, -2.5, .
- Cc1cc(/C=C2/NC(=O)NC2=O)c(C)n1-c1ccncc1
  100.7, -28.6, 112.9, i, 0.88, -6.1, .
- CCOC(=O)CSc1nnc(CNC(=O)c2ccc(OC)cc2)n1C1CCCCC1
  102.2, -57.1, 112.0, i, 1.01, -3.9, -1.9
- COc1ccc(C(=O)NCCSc2ccccc2)cc1OC
  100.3, 35.3, 139.0, i, 1.04, 5.1, .
- COc1ccc(NC(=O)Cn2c(=O)sc3ccccc32)cc1
  99.8, -53.6, 18.4, i, 0.993, 0.6, -2.4
- Cc1c(-c2ccccc2)nc(-c2ccccc2)[nH]c1=O
  108.3, -9.7, 136.8, i, 1.03, -0.6, -1.5
- Cc1cc(C(=O)OCC(=O)N2c3ccccc3CC2C)c(C)o1 (stereo unspecified)
  84.5, 0.0, 106.8, i, 0.98, 1.2, -1.0
- COCN(C#N)c1nc(N(C)C)nc(N(C)C)n1
  67.4, ., ., i, 0.93, -2.6, .
- CCOc1cccc2cc(-c3csc(NC(=O)CCC(=O)NCCCN4CCC(C)CC4)n3)c(=O)oc12
  107.9, ., ., i, 0.82, -2.6, .
- COC(=O)CNc1nc(Cl)nc(Nc2ccc(C)cc2)n1
  103.3, ., ., i, 0.98, -2.9, .
- COc1ccc(-n2cc(CN(C)C3CCOCC3)c(-c3cccc(F)c3)n2)cc1
  105.2, ., ., i, 0.89, 0.5, .
- CCOC(=O)c1[nH]cnc1C(=O)Nc1ccccc1C
  102.1, 18.8, 119.8, i, 0.97, 3.2, .
- CC(CCc1ccccc1)NC(=O)/C=C/c1ccc(F)cc1 (stereo unspecified)
  93.0, ., ., i, 0.94, 4.0, .
- Cc1cc(C(=O)COC(=O)C2=NNC(=O)CC2)c(C)n1-c1ccc(OC(F)F)cc1
  94.0, -3.1, 69.4, i, 0.92, 3.9, -1.3
- O=C(c1cc2cc(Cl)ccc2oc1=O)N1CCCC1
  99.7, -293.8, 93.6, i, 1, 3.6, -1.6
- FC(F)(F)c1ccc(C2[C@H]3CN(Cc4ccc(-c5ccccc5)cc4)[C@H](c4ccccc4)C34CC2(c2cccnc2)C4)cc1 (stereo partly specified)
  100.2, ., ., i, 0.955, ., .
- COC(=O)/C(=C\c1c[nH]c2ccccc12)NC(C)=O
  112.0, -47.7, 59.2, i, 1.05, 1.9, -1.7
- CC(=O)NC(CCS(C)(=O)=O)C(=O)Nc1c(F)cccc1F (stereo unspecified)
  103.2, -27.3, 181.8, ., ., -9.7, -1.6
- CCCc1cc(NCCCO)n2c(nc3ccccc32)c1C#N
  108.4, ., ., i, 0.85, ., .
- COc1cc2[nH]c(=O)n(CCCC(=O)N3CC=C(c4ccccc4)CC3)c(=O)c2cc1OC
  100.3, -18.8, 55.1, i, 1, -9.3, -0.6
- CCn1nc(C)c([N+](=O)[O-])c1C(=O)NNC(=O)c1ccc(Cl)cc1
  100.2, ., ., i, 1.02, ., .
- NC(=O)c1c(NC(=O)CSc2nnc(Cc3ccccc3)n2Cc2ccco2)sc2c1CCC2
  24.5, ., ., i, 0.93, 1.6, -1.8
- CC(=O)Oc1ccc(N2C(=O)C3C(C2=O)C(C(=O)c2ccc(Cl)cc2)N2CCCC32)cc1 (stereo unspecified)
  106.7, ., ., i, 1.27, ., .
- COc1ccc(C(=O)Nn2c(C)ccc2C)cc1OC
  102.8, -338.9, 50.8, i, 1.07, -12.9, -3.3
- O=C(Cc1cccs1)Nc1cccc(-c2nnc(-c3ccco3)o2)c1
  95.3, ., ., i, 0.85, 2.2, .
- Cc1ccc(C(C)NC(=O)c2c(C)noc2C)cc1C (stereo unspecified)
  118.0, 12.0, 105.9, i, 1.17, -2.2, -0.5

Rewritten as comma-separated lines: entries from further up.
smiles,RGS16-Gao,INS promoter inh,INS promoter inh cell count,HSV augment,HSV augment primary fold,PKD1 inh,GALR2 agonist
NC(=O)c1c(NC(=O)CSc2nnc(Cc3ccccc3)n2Cc2ccco2)sc2c1CCC2,24.5,.,.,i,0.93,1.6,-1.8
CC(=O)Oc1ccc(N2C(=O)C3C(C2=O)C(C(=O)c2ccc(Cl)cc2)N2CCCC32)cc1 (stereo unspecified),106.7,.,.,i,1.27,.,.

Complete entries, quoted from the list. Order of screens: RGS16-Gao, INS promoter inh, INS promoter inh cell count, HSV augment, HSV augment primary fold, PKD1 inh, GALR2 agonist
`CCCc1cc(NCCCO)n2c(nc3ccccc32)c1C#N` in the list: 108.4, ., ., i, 0.85, ., .
`COc1ccc(C(=O)NCCSc2ccccc2)cc1OC` in the list: 100.3, 35.3, 139.0, i, 1.04, 5.1, .
`CCOc1cccc2cc(-c3csc(NC(=O)CCC(=O)NCCCN4CCC(C)CC4)n3)c(=O)oc12` in the list: 107.9, ., ., i, 0.82, -2.6, .
`CCOC(=O)c1[nH]cnc1C(=O)Nc1ccccc1C` in the list: 102.1, 18.8, 119.8, i, 0.97, 3.2, .
`O=C(c1cc2cc(Cl)ccc2oc1=O)N1CCCC1` in the list: 99.7, -293.8, 93.6, i, 1, 3.6, -1.6

More compounds
Each structure is followed by: RGS16-Gao, INS promoter inh, INS promoter inh cell count, HSV augment, HSV augment primary fold, PKD1 inh, GALR2 agonist
- CCn1c(Cc2ccccc2)nnc1SCC(=O)c1cccc([N+](=O)[O-])c1
  109.8, -33.3, 155.0, i, 0.67, -6.0, -2.2
- CCOc1ccc(N(CC(=O)NCc2ccccc2)S(=O)(=O)c2c(C)noc2C)cc1
  98.7, ., ., i, 0.98, -17.1, -3.1
- COc1ccc(-c2noc(CCC(=O)Nc3cccnc3)n2)cc1OC
  102.3, ., ., i, 0.83, -10.4, -1.0
- COC(=O)C(C)(C(=O)OC)c1ccccc1[N+](=O)[O-]
  98.1, -435.7, 79.6, i, 0.97, -4.9, -3.0
- Cc1c(Cl)c([N+](=O)[O-])nn1CCCC(=O)Nc1sc2c(c1C(N)=O)CCC(C)C2 (stereo unspecified)
  75.3, -20.0, 69.2, i, 0.84, -2.3, -1.4
- Cc1nn(Cc2ccc(Cl)cc2Cl)c(C)c1NC(=O)NC12CC3CC(CC(C3)C1)C2
  97.5, -317.4, 113.9, i, 1.02, -0.8, -1.9
- O=C1Nc2ccccc2C(O)(C(=O)NCc2ccco2)N1c1ccc(Cl)c(Cl)c1 (stereo unspecified)
  108.9, -100.0, 58.9, i, 0.87, -1.3, -3.0
- CCOc1ccc(CN2C(=O)c3ccccc3C2C(=O)NCc2cccnc2)cc1 (stereo unspecified)
  110.7, -163.6, 87.7, i, 1.04, -9.0, -2.3
- COc1ccc(-n2cc(C(=O)O)c(=O)cc2C)cc1
  107.7, 23.1, 135.6, ., ., -0.4, .
- C/C(=N/O)c1ccccn1
  107.8, ., ., i, 0.87, 7.7, .
- CCCc1c(C)c2ccccc2[nH]c1=O
  98.4, -10.0, 115.7, i, 0.943, 7.1, -1.1
- COc1ccc2c(c1)CCCC21NC(=O)NC1=O (stereo unspecified)
  105.3, 39.4, 77.3, i, 1.08, -3.0, -1.8
- CC(C)NC(=O)c1sc2nc(-c3cccs3)cc(-c3cccs3)c2c1N
  101.9, 43.3, 86.5, i, 1.18, 7.3, 0.1
- COC(=O)CSc1nnc(-c2ccoc2C)n1-c1ccc(C)cc1
  105.2, ., ., i, 0.967, 0.2, -1.1
- CC(C)(C)c1cc(NC(=O)CSc2nncs2)n(-c2ccccc2)n1
  105.9, -34.6, 45.1, i, 1.06, -7.6, -1.1
- COC(=O)c1n[nH]n(-c2ccc(F)c(Cl)c2)c1=O
  95.1, ., ., i, 0.76, ., .
- O=C(COc1ccc(Br)cc1)N1CCN(c2ccc([N+](=O)[O-])c(N3CCCCC3)c2)CC1
  100.7, ., ., i, 1.03, -5.8, -0.5
- CCC(CO)NS(=O)(=O)c1cc(-c2nn(C)c(=O)c3ccccc23)ccc1C (stereo unspecified)
  103.2, ., ., i, 0.94, -3.5, .
- COC(=O)c1cn(NC(=O)C2COc3ccccc3O2)c(=O)c2ccccc12 (stereo unspecified)
  95.4, ., ., i, 1.03, -14.9, -0.6
- CCOC(=O)N1CCc2c(sc3c2c(=O)n(Cc2ccccc2)c(=O)n3CC(=O)NCCOC)C1
  102.2, 20.0, 147.9, i, 0.92, -1.7, .
- CN(Cc1ccon1)Cc1cn(C)nc1-c1ccc(Oc2ccccc2)cc1
  102.3, ., ., i, 0.99, ., .
- C/C(=N/NC(=O)CCC(=O)Nc1cccc(Cl)c1)c1ccc(C)cc1
  62.6, 8.3, 126.8, ., ., 1.0, 0.5
- CC1=Nc2ccc(Br)cc2C(c2ccccc2)N1CC(=O)O (stereo unspecified)
  106.5, ., ., i, 0.97, -2.3, .
- O=C(c1ccco1)N1CCC(c2nc(-c3ccc(F)cc3)no2)CC1
  97.1, 35.7, 43.3, i, 1.14, -9.8, -1.9
- Nc1ccc(Cc2ccccn2)cc1
  106.0, -20.0, 97.0, i, 1.09, 4.2, .
- CNC(=O)c1cc2cccc(OC)c2oc1=O
  103.1, -12.5, 86.4, i, 1.05, -5.6, -0.1
- Cc1nc(Sc2ccccc2)c(C#N)c(C)c1[N+](=O)[O-]
  84.8, ., ., i, 0.82, ., .
- CNC(=O)c1cc2cc(OC)ccc2oc1=N
  115.6, -18.5, 93.9, i, 0.9, 0.1, -0.2
- N#CC1=C(N)Oc2n[nH]c(-c3ccc(F)cc3)c2C1c1ccncc1 (stereo unspecified)
  96.5, ., ., ., ., -5.7, -1.2
- CC1(C)C(C=C(Cl)Cl)C1C(=O)N1CCN(c2ccccc2)CC1 (stereo unspecified)
  97.3, -31.8, 114.8, i, 0.84, -6.9, -2.4

More results
Each structure is followed by: RGS16-Gao, INS promoter inh, INS promoter inh cell count, HSV augment, HSV augment primary fold, PKD1 inh, GALR2 agonist
- C=C(C)c1cccc(C(C)(C)NC(=O)NCc2ccncc2)c1
  101.4, ., ., i, 1.05, -3.7, .
- COc1ccc2cc3cc(C(=O)NCc4ccc5c(c4)OCO5)oc3nc2c1
  99.8, 0.0, 80.1, ., ., -4.2, -1.4
- O=C(Nc1ccccc1Cl)ON=C1c2ccccc2-c2ccccc21
  94.9, ., ., i, 0.99, 60.6*, -1.1
- CC(=O)N1CCC(C(=O)Nc2cc(C)cc(C)c2)CC1
  101.8, ., ., i, 0.93, ., .
- CC(=O)c1ccc(S(=O)(=O)N2CCC(NC(=O)Nc3cccc(F)c3)CC2)cc1
  99.8, ., ., i, 1.01, -2.1, .
- CC(Sc1nc(NCc2ccccc2)nc(N2CCOCC2)n1)C(=O)Nc1ccccc1 (stereo unspecified)
  97.9, -7.7, 73.6, i, 0.92, 1.2, -2.9
- CCCc1nnc(NC(=O)CCC(=O)N2CCN(CCOc3ccc(C)cc3)CC2)s1
  192.4, 5.4, 85.2, i, 1.05, -5.3, -3.4
- O=C(/C=C/c1ccccc1)/C=C/c1ccccc1
  95.7, -65.5, 65.1, i, 0.53, -3.0, -0.6
- CC(C)(C)C1CCc2c(sc(NC(=O)CSc3nnc(-c4ccccc4)o3)c2C#N)C1 (stereo unspecified)
  143.3, 38.9, 88.2, i, 0.99, -4.8, -2.1
- C=CCOC(=O)C1=C(C)NC(SCC(=O)OCC)=C(C#N)C1c1ccc(C)cc1 (stereo unspecified)
  105.1, -11.1, 132.3, i, 1.17, -4.4, -1.0
- COc1cc(/C=C(\C#N)C(=O)NC(C)C)cc(Cl)c1O
  103.1, -13.3, 96.8, i, 1.04, 0.2, .

Quoted from the listing.
CC(=O)c1ccc(S(=O)(=O)N2CCC(NC(=O)Nc3cccc(F)c3)CC2)cc1 – PKD1 inh: -2.1
CC(C)(C)C1CCc2c(sc(NC(=O)CSc3nnc(-c4ccccc4)o3)c2C#N)C1 (stereo unspecified) – RGS16-Gao: 143.3
CC(=O)N1CCC(C(=O)Nc2cc(C)cc(C)c2)CC1 – HSV augment primary fold: 0.93

Compound activity as filed in PubChem.
